Rango-impB inh: qHTS Assay for Inhibitors of Rango (Ran-regulated importin-beta cargo) - Importin beta complex formation. Importin subunit beta-1 (Homo sapiens), Q14974. Rango CFP/YFP FRET sensor + importin beta, 45 min. Potency, µM (doses to about 92.2 µM), without a hit: at the top dose inhibition of complex formation. hit rate 0.031% among 340,000. AID 540263, 2011; active = rising FRET ratio curve, often small or poorly fitted; inconclusive = mostly compound fluorescence or quenching in the first reads; inactive = flat curves in all reads;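 further: potency means the concentration at half of the fitted maximal effect; 0% = DMSO wells and 100% = buffer wells lacking importin beta; nearly all actives have a fitted effect of over 15% in size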
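FRET biosensor (snurportin 1 IBB flanked by EYFP and cerulean), 50 nM, with compound 5 min, then 0.125 microM importin beta in PBS, 1 mM DTT, 0.02% Tween-20, 0.1% BSA. CFP/YFP ratio read after 45 min at room temperature; pre-read flags interference.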
GLA inh pH 4.5: qHTS Assay for Inhibitors of Human alpha-Galactosidase at pH 4.5; Alpha-galactosidase A (Homo sapiens), P06280; 230,000 tested, under 10 active; AID 1467, 2008; activity change, negative = inhibition, % at 105 µM; purified enzyme, 4-MU-alpha-Gal fluorescence, pH 4.5; inconclusive = small, poorly fitted or top-dose-only inhibition, or a rising curve; inactive = flat fitted curve, though single readings scatter; no compound was filed as active;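 further: 0% = full activity with enzyme and -100% = basal without enzyme; dose as in the result columns while the protocol names 77 µM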
Target sequence (P06280 whole entry, looked up): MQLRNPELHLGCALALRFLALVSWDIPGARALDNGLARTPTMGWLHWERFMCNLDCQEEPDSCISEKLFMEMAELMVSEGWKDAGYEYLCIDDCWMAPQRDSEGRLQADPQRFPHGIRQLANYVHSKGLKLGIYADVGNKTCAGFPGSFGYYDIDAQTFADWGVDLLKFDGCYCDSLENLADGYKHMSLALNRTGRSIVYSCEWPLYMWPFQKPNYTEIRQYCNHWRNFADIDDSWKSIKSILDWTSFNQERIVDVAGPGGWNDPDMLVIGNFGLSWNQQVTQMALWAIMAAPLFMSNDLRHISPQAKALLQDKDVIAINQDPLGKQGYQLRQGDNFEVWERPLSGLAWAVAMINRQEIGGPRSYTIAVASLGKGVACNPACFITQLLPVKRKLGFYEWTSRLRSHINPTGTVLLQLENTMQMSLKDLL
miR-21 reporter: qHTS Assay for Modulators of miRNAs and/orActivators of miR-21. HeLa miR-21 FLuc reporter, luciferase, 48 h. Potency, µM (highest dose often 38.3 µM), for inactives: at the top dose reporter change, positive = more light. 340,000 tested, under 10 active. AID 2288, 2010; active = well fitted rising curve with a large enough effect; inconclusive = small, poorly fitted or top-dose-only effect; inactive = no such curve, though single readings can be large or run the other way;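 further: % of control where 0% means no effect; miR-21 action dims this reporter so a rising signal means less miR-21 action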
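Luminescence from a firefly luciferase reporter carrying a miR-21 binding site downstream, stably expressed under a CMV promoter in HeLa cells that make miR-21 endogenously, reports miRNA modulation after 48 h compound exposure up to approximately 40uM final.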
Rango release inh: qHTS Assay for Inhibitors of RanGTP induced Rango (Ran-regulated importin-beta cargo) - Importin beta complex dissociation. Snurportin-1 (Homo sapiens) + GTP-binding nuclear protein Ran (Homo sapiens) + Importin …. Biochemical FRET Rango-importin beta, RanGTP-induced dissociation. Potency, µM (highest dose often 46.1 µM), inactives show at the highest dose activity change, negative = inhibition. hit rate 0.071% among 340,000. AID 540253, 2011; active means falling FRET ratio curve, often poorly fitted, with flat reads before Ran was added; inconclusive means other falling curves, or compound fluorescence or quenching; inactive means flat or rising ratio curve;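 further: potency means the concentration at half of the fitted maximal effect; % of control where 0% means no effect; nearly all actives have a fitted effect of over 45% in size; -100% = wells without RanGTP and RCC1; the record marks most hits as doubtful in a second field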
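Compounds preincubate 5 min with complex of recombinant Rango and importin beta in PBS with 1 mM DTT. Ran (0.6 uM) loaded with 2 mM GTP plus 0.2 uM RCC1 starts dissociation; FRET is recorded 45 min later.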
* marks the source's active call; other numbers are inactive results. A portion of the library; the hit share may differ from the screen's.

What do the screens show for `CCOc1cccc2sc(=NC(=O)CCS(=O)(=O)c3ccccc3)n(CC)c12`?
Rango-impB inh: inconclusive; miR-21 reporter: 9%; Rango release inh: -16%

What do the screens show for `COc1cc(NS(=O)(=O)c2ccc(-c3ccc(=O)[nH]n3)o2)cc(OC)c1OC`?
Rango-impB inh: 0.7%; miR-21 reporter: 6%; Rango release inh: inconclusive

What do the screens show for `O=C(c1cc2ccccc2oc1=O)N(Cc1cccs1)C1CCS(=O)(=O)C1` (configuration not stated)?
Rango-impB inh: -1.1%; GLA inh pH 4.5: -3; miR-21 reporter: -54%; Rango release inh: -16%

Results for COC(=O)C(C)Oc1ccc(Oc2nc(Cl)ccc2Cl)cc1 (configuration not stated) ?
Rango-impB inh: 0.2%; GLA inh pH 4.5: -2; miR-21 reporter: 3%; Rango release inh: -3%

What do the screens show for `Cc1nc2nc(-c3ccc(F)cc3)cn2nc1C`?
Rango-impB inh: inconclusive; miR-21 reporter: -19%; Rango release inh: inconclusive

How did CCC1CCCCN1CC(O)Cn1c2ccccc2n2c(=O)cc(C)c(C#N)c12 (configuration not stated) do in these assays?
Rango-impB inh: 3.2%; GLA inh pH 4.5: -2; miR-21 reporter: -9%; Rango release inh: 12%

Results for COc1ccc(Cn2nnnc2CN2CCC(O)(c3ccccc3F)CC2)cc1 ?
Rango-impB inh: 0.9%; GLA inh pH 4.5: 1; miR-21 reporter: -5%; Rango release inh: -6%

Results for CNC(=O)c1cn(-c2ccccc2)c(=O)c2ccccc12 ?
Rango-impB inh: inconclusive; GLA inh pH 4.5: 3; miR-21 reporter: -5%; Rango release inh: -17%

What do the screens show for `CCOc1ccc2nc(N3CCC(C(=O)NCCCN4CCOCC4)CC3)sc2c1`?
Rango-impB inh: -0.1%; GLA inh pH 4.5: 5; miR-21 reporter: -39%; Rango release inh: -1%

Results for O=C(NCC(c1ccc(F)cc1)N1CCOCC1)c1ccc(C(=O)c2ccccc2)cc1 (configuration not stated) ?
Rango-impB inh: 3.3%; GLA inh pH 4.5: -2; miR-21 reporter: 3%; Rango release inh: 12%

Results for O=C(COc1ccccc1[N+](=O)[O-])Nc1cccc(Cl)c1N1CCOCC1 ?
Rango-impB inh: -3.6%; miR-21 reporter: 24%; Rango release inh: 27%

Results for CCc1ccc(CSc2nccn2-c2ccccc2)cc1 ?
Rango-impB inh: 0.4%; GLA inh pH 4.5: 1; miR-21 reporter: -8%; Rango release inh: -1%

Reprinted at random: 2 records from the list
What do the screens show for `O=C(c1cc2ccccc2oc1=O)N(Cc1cccs1)C1CCS(=O)(=O)C1` (configuration not stated)?
Rango-impB inh: -1.1%; GLA inh pH 4.5: -3; miR-21 reporter: -54%; Rango release inh: -16%

Results for COc1ccc(Cn2nnnc2CN2CCC(O)(c3ccccc3F)CC2)cc1 ?
Rango-impB inh: 0.9%; GLA inh pH 4.5: 1; miR-21 reporter: -5%; Rango release inh: -6%

Next records:
What do the screens show for `Cc1ccc2c(c1)[nH]c1c(=O)n(Cc3ccccn3)cnc12`?
Rango-impB inh: inconclusive; GLA inh pH 4.5: 9; miR-21 reporter: -12%; Rango release inh: -5%

How did O=C(COc1cc2oc(=O)c3c(c2cc1Cl)CCCC3)NCC1CCC(C(=O)O)CC1 (configuration not stated) do in these assays?
Rango-impB inh: -1.8%; miR-21 reporter: -6%; Rango release inh: 0%

Results for COc1ccc(/C=N/NC(=O)CN(C)C(=O)OCc2ccccc2)cc1OC ?
Rango-impB inh: 0.8%; miR-21 reporter: -12%; Rango release inh: -3%

Results for C/C(Nc1ccc(Cl)cc1)=C1/CCOC1=O ?
Rango-impB inh: -3.4%; Rango release inh: -14%

Results for N=C1S/C(=C\c2ccco2)C(=O)N1c1nccs1 ?
Rango-impB inh: inconclusive; GLA inh pH 4.5: -5; miR-21 reporter: -12%; Rango release inh: inconclusive

Results for CC(C)(C)C(=O)/C=C/c1ccc(Oc2ccccc2)cc1 ?
Rango-impB inh: 0.3%; GLA inh pH 4.5: -7; miR-21 reporter: -55%; Rango release inh: 7%

Results for Cc1ccc(S(=O)(=O)C2(C(=O)N3CCN(c4ccccc4F)CC3)CC2)cc1 ?
Rango-impB inh: -2.2%; miR-21 reporter: -2%; Rango release inh: -10%

Results for CC1CN(C(c2cccs2)c2sc3ncnn3c2O)CC(C)O1 (configuration not stated) ?
Rango-impB inh: 0.0%; GLA inh pH 4.5: -8; miR-21 reporter: 2%; Rango release inh: 4%

How did Cn1ccc(NC(=O)Nc2cccc(C(F)(F)F)c2)n1 do in these assays?
Rango-impB inh: -0.1%; GLA inh pH 4.5: 3; miR-21 reporter: -16%; Rango release inh: -8%

What do the screens show for `CCOc1ncccc1C(=O)N=C1SCCN1C(=O)c1cccnc1OCC`?
Rango-impB inh: -0.5%; GLA inh pH 4.5: 3; miR-21 reporter: 0%; Rango release inh: 1%

How did CCOC(=O)c1ccc(N2CN(C3CCCCC3)CNC2=S)cc1 do in these assays?
Rango-impB inh: 0.4%; GLA inh pH 4.5: 2; miR-21 reporter: 4%; Rango release inh: 8%

Results for O=C(c1cc2nc(-c3ccccc3)cc(-c3ccccc3)n2n1)N1CCCC1 ?
Rango-impB inh: -0.2%; GLA inh pH 4.5: 4; miR-21 reporter: -7%; Rango release inh: 5%

Results for O=C(c1ccc(Cn2cc(Br)cn2)cc1)N1N=C(C(F)F)CC1(O)C(F)F (configuration not stated) ?
Rango-impB inh: -2.3%; GLA inh pH 4.5: -13; miR-21 reporter: -7%; Rango release inh: -11%

What do the screens show for `O=C1OCC/C1=C\c1ccc(O)cc1`?
Rango-impB inh: 0.0%; GLA inh pH 4.5: -7; miR-21 reporter: 13%; Rango release inh: -5%

What do the screens show for `Cc1ccccc1OCC(=O)N/N=C/c1ccc(Sc2nc3ccccc3s2)o1`?
Rango-impB inh: -1.0%; GLA inh pH 4.5: 1; miR-21 reporter: 2%; Rango release inh: -18%

What do the screens show for `O=C(COC(=O)c1ccc(S(=O)(=O)N2CCCCC2)cc1)NCc1ccccc1`?
Rango-impB inh: -0.1%; Rango release inh: -19%

What do the screens show for `CC1(C)C2CCC1(CS(=O)(=O)N1CCOCC1)C(=O)C2` (configuration not stated)?
Rango-impB inh: -3.5%; GLA inh pH 4.5: 6; miR-21 reporter: -5%; Rango release inh: 1%

How did Cc1ccc(C)c(N2CCN(C(=O)Cn3cccc3)CC2)c1 do in these assays?
Rango-impB inh: 0.9%; GLA inh pH 4.5: 5; miR-21 reporter: -3%; Rango release inh: -6%

What do the screens show for `COc1ccc(CNC(=O)CN(Cc2ccc(OC)cc2)C(=O)c2csnn2)cc1`?
Rango-impB inh: 0.6%; GLA inh pH 4.5: -15; miR-21 reporter: 0%; Rango release inh: inconclusive

What do the screens show for `CS(=O)(=O)Nc1nc2n(n1)C(c1ccc(F)cc1)CC(c1ccccc1)N2` (configuration not stated)?
Rango-impB inh: 1.2%; GLA inh pH 4.5: -2; miR-21 reporter: -2%; Rango release inh: 18%

What do the screens show for `c1ccc(-c2ccc(C3CCCN3)cc2)cc1` (configuration not stated)?
Rango-impB inh: 0.1%; GLA inh pH 4.5: -28; miR-21 reporter: -28%; Rango release inh: -10%

Results for CCCCCCCCNC(=O)c1cnsn1 ?
Rango-impB inh: -6.1%; GLA inh pH 4.5: 5; miR-21 reporter: -12%; Rango release inh: 3%

How did COC(=O)c1sc(NC(=O)c2ccc(C)o2)nc1C do in these assays?
Rango-impB inh: 1.9%; GLA inh pH 4.5: 11; miR-21 reporter: -51%; Rango release inh: 3%

How did CC(C)=CCC/C(C)=C/CNC(=O)C[C@H]1C[C@H](C(=O)N2CCCCC2)[C@@]2(C)c3[nH]c4ccc(Cl)cc4c3CCN2C1=O do in these assays?
Rango-impB inh: -1.4%; Rango release inh: -12%

Next section, starting with the last 2 of the part before.
How did COC(=O)c1sc(NC(=O)c2ccc(C)o2)nc1C do in these assays?
Rango-impB inh: 1.9%; GLA inh pH 4.5: 11; miR-21 reporter: -51%; Rango release inh: 3%

How did CC(C)=CCC/C(C)=C/CNC(=O)C[C@H]1C[C@H](C(=O)N2CCCCC2)[C@@]2(C)c3[nH]c4ccc(Cl)cc4c3CCN2C1=O do in these assays?
Rango-impB inh: -1.4%; Rango release inh: -12%

Results for CC(=O)Nc1c(O)nc(SCC(=O)Nc2c(C)cccc2C)[nH]c1=O ?
Rango-impB inh: -0.7%; GLA inh pH 4.5: 1; miR-21 reporter: 1%; Rango release inh: -8%

How did CNc1ccccc1C(=O)OC(C)C(=O)Nc1ccc(S(=O)(=O)N2CCCC2)cc1 (configuration not stated) do in these assays?
Rango-impB inh: 0.6%; miR-21 reporter: 10%; Rango release inh: 1%

Results for Cc1noc(C)c1COC(=O)/C=C/c1ccccc1Cl ?
Rango-impB inh: inconclusive; GLA inh pH 4.5: 5; miR-21 reporter: -5%; Rango release inh: -8%

What do the screens show for `O=C(c1cc(-c2ccco2)on1)N1CCCc2ccccc21`?
Rango-impB inh: -0.2%; GLA inh pH 4.5: -1; miR-21 reporter: -21%; Rango release inh: -8%

How did O=C(Nc1ccccc1N1CCN(c2ccccc2)CC1)C1CCCCC1 do in these assays?
Rango-impB inh: 0.8%; GLA inh pH 4.5: -2; miR-21 reporter: 0%; Rango release inh: 0%

Results for CCCc1c(C(=O)N/N=C/c2ccccc2OCc2ccc(F)cc2)nnn1-c1nonc1N ?
Rango-impB inh: inconclusive; miR-21 reporter: 1%; Rango release inh: -3%

How did CCOc1cc2[nH]c(=S)n(CCCCC(=O)NCc3ccco3)c(=O)c2cc1OCC do in these assays?
Rango-impB inh: 0.3%; GLA inh pH 4.5: 2; miR-21 reporter: -7%; Rango release inh: -4%

How did COC(=O)c1cc(S(=O)(=O)N2CCC(C(N)=O)CC2)oc1C do in these assays?
Rango-impB inh: 0.4%; GLA inh pH 4.5: 3; miR-21 reporter: -6%; Rango release inh: -10%

Results for CC(C)CN(C(=O)Cn1ccccc1=O)C1CCS(=O)(=O)C1 (configuration not stated) ?
Rango-impB inh: -0.3%; Rango release inh: -3%

Results for Cc1ccc2oc(=O)n(CC(=O)c3ccc(F)cc3)c2c1 ?
Rango-impB inh: 1.0%; GLA inh pH 4.5: 1; miR-21 reporter: 1%; Rango release inh: 10%

How did CCCN1CCN(C(=O)Nc2ccc(OCC)cc2)CC1 do in these assays?
Rango-impB inh: -2.8%; GLA inh pH 4.5: -2; miR-21 reporter: -3%; Rango release inh: -9%

How did O=C(O)C(c1ccccc1)C1(O)CCCCC1 (configuration not stated) do in these assays?
Rango-impB inh: 0.2%; GLA inh pH 4.5: -6; miR-21 reporter: -1%; Rango release inh: -8%

How did COc1ccccc1N1CCN(S(=O)(=O)c2cc(-c3cc(C)no3)ccc2C(C)C)CC1 do in these assays?
Rango-impB inh: 1.4%; miR-21 reporter: -5%; Rango release inh: 14%

Results for Cc1ccc(C)c(NC(=S)NC23CN4CN(CN(C4)C2)C3)c1 ?
Rango-impB inh: -0.5%; GLA inh pH 4.5: 1; miR-21 reporter: 1%; Rango release inh: -14%

What do the screens show for `Clc1ccc(-c2cnc3n2CCC3)cc1`?
Rango-impB inh: inconclusive; GLA inh pH 4.5: 1; miR-21 reporter: -45%; Rango release inh: inconclusive

Results for CC(=O)c1ccc(S(=O)(=O)Nc2ccc(-c3ccc4nnc(C)n4n3)cc2)cc1 ?
Rango-impB inh: 2.4%; GLA inh pH 4.5: 3; miR-21 reporter: -11%; Rango release inh: 6%

How did Cc1cc(C)c2c(N)c3ccccc3nc2n1 do in these assays?
Rango-impB inh: inconclusive; GLA inh pH 4.5: 14; miR-21 reporter: inconclusive; Rango release inh: inconclusive

What do the screens show for `O=C(Nc1cc(C(=O)N2CCCC2)ccc1N1CCCC1)c1ccccc1`?
Rango-impB inh: -0.4%; GLA inh pH 4.5: -15; miR-21 reporter: 0%; Rango release inh: 12%

High-throughput results (PubChem)
